Mtb hypoxia rep – inhibitors of hypoxia-regulated fluorescent reporter in Mycobacterium tuberculosis; M. tuberculosis hypoxia-regulated fluorescent reporter, fluorescence; actives 0.1% (n = 300,000); fluorescence inhibition, % (no concentration beside the values);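 active means 35 to 45% if threefold the growth effect, above 45% if 1.5-fold the growth effect; inactive means the rest, general growth blockers included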;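 further: wells of about 50 µL received 100 nL stock; 0% = vehicle wells and 100% = reference inhibitor wells; whole bacteria with a GFP reporter of the hypoxia response; strong numbers were not always called active; many hits fall short of the cut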
Autofluor counter – flagged as autofluorescent in microsphere protease counterscreen; compound autofluorescence counterscreen, microsphere flow cytometry; active compounds read high; fluorescence intensity (no concentration beside the values); actives 3.1% (n = 360,000);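 active means at least 3 SD above the mean of all compounds, about 16000 in these data; inconclusive means too few beads counted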;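 further: 100 nL of 1 mM stock went into each well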
PrP 5UTR inh – suppresses PrP 5' UTR mRNA reporter expression; cell-based PrP 5' UTR mRNA reporter, plate reader; inhibition, % (no concentration beside the values); actives 0.35% (n = 340,000);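 active means every replicate at 50% or more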;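 further: 0 = median of the neutral control wells; tested in H4 reporter cells; numbers are from one replicate; inactives centre near -14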
BJeLR lethal – BJeLR cell viability loss. BJeLR (HRASV12) viability, CellTiter-Glo ATP luminescence, 48 h; reference of the scale not given here. inhibition, % (test concentration not listed). actives 0.17% (n = 300,000). AID 1554;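 active means replicate mean above 50%; inconclusive means above 50% but judged a plate artefact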;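 further: 50 nL library stock added to about 25 µL; numbers are from one replicate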
ugtP null kill – kills S. aureus RN4220 lacking UgtP; S. aureus RN4220 ugtP deletion, OD600 growth, 16 h; some inactives read as strong as hits; growth inhibition, % (concentration not given with the values); actives 0.54% (n = 330,000);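 active means z-score under -3 and OD600 up to 0.15 on both plates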;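 further: plate controls were untreated wells for no effect and antibiotic for full effect; wells of about 80 µL received 100 nL stock; the first replicate is given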
RN4220 kill – S. aureus RN4220 growth inhibition | OD600, 16 h | inhibition, % (no concentration beside the values) | actives 0.33% (n = 330,000);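 active means z-score of -3 or lower and OD600 up to 0.18 on both plates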;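 further: plate controls were untreated cells for no effect and reference antibiotic for full effect; stock transfer was 100 nL into about 80 µL; one replicate is shown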
Mtb hypoxia rep growth – second read-out of Mtb hypoxia rep, no call of its own (marks repeat the call); growth inhibition, %; measured here: M. tuberculosis growth (absorbance);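 0% = vehicle and 100% = reference antibiotic; read after six days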
An asterisk follows results filed as active.

Screening C=CCn1c(O)c(/C(C)=N/N2CCCCCC2)c(=O)[nH]c1=O returned Mtb hypoxia rep 6, Autofluor counter 4438, PrP 5UTR inh -13, BJeLR lethal -6, ugtP null kill 2, RN4220 kill 1.9 and Mtb hypoxia rep growth 0.
`O=C(CN1C(=O)NC2(CCCCC2)C1=O)Nc1ccc(N2CCOCC2)cc1` gave Mtb hypoxia rep 7, Autofluor counter 2579, PrP 5UTR inh -12, BJeLR lethal -3, ugtP null kill 4, RN4220 kill 2.3 and Mtb hypoxia rep growth 9.
CC(C)c1ccc(C(=O)NCCCc2ccccc2)cc1 was read as Mtb hypoxia rep 8, Autofluor counter 9809, PrP 5UTR inh -64, BJeLR lethal -13, ugtP null kill -3, RN4220 kill -2.3 and Mtb hypoxia rep growth 13.
`Cc1noc(C(=O)NCc2ccco2)c1Cl` gave Mtb hypoxia rep -1, Autofluor counter 4834, PrP 5UTR inh -20, BJeLR lethal -4, ugtP null kill -17, RN4220 kill 4.2 and Mtb hypoxia rep growth 5.
Screening O=C(CSc1nc2ccccc2c(=O)[nH]1)Nc1nc(-c2ccc(Br)cc2)cs1 returned Mtb hypoxia rep 9, Autofluor counter 5783, PrP 5UTR inh 0, BJeLR lethal 6, ugtP null kill -11, RN4220 kill 2.0 and Mtb hypoxia rep growth -5.
Cc1ccc(S(=O)(=O)CCc2nnc(NC(=O)C3CCCO3)s2)cc1 (configuration not stated) was read as Autofluor counter 5024, PrP 5UTR inh 5, BJeLR lethal -2, ugtP null kill 1 and RN4220 kill 2.4.
Cc1ccc(-n2c(-c3ccccc3)nnc2-c2cccs2)cc1 was read as Mtb hypoxia rep 14, Autofluor counter 9672, PrP 5UTR inh -31, BJeLR lethal 6, ugtP null kill 3, RN4220 kill 4.8 and Mtb hypoxia rep growth 9.
`CN(Cc1ccccc1F)c1ncnc2sccc12` gave Mtb hypoxia rep -5, Autofluor counter 5250, PrP 5UTR inh -10, BJeLR lethal -5, ugtP null kill 1, RN4220 kill 4.9 and Mtb hypoxia rep growth 11.
For COc1ccc(CCN(C(=O)c2snc(C(N)=O)c2N)C(C(=O)NCC2CCCO2)c2ccc(F)cc2)cc1OC (configuration not stated) the results were Mtb hypoxia rep -10, Autofluor counter 4056, PrP 5UTR inh 8, BJeLR lethal -13, ugtP null kill -2, RN4220 kill -0.8 and Mtb hypoxia rep growth 6.
For COc1ccc(C2CCCN2C(=S)Nc2ccc(C)c(C)c2)cc1OC (configuration not stated) the results were Mtb hypoxia rep 0, Autofluor counter 4238, PrP 5UTR inh -5, BJeLR lethal 2, ugtP null kill 11, RN4220 kill 2.4 and Mtb hypoxia rep growth 3.
Screening Cc1nc(N2CCOCC2)nc(N2CCCCC2)c1[N+](=O)[O-] returned Mtb hypoxia rep 5, Autofluor counter 2112, PrP 5UTR inh -8, BJeLR lethal 3, ugtP null kill 8, RN4220 kill 2.8 and Mtb hypoxia rep growth 7.
Screening O=C(c1ccc2c(=O)n(Cc3ccco3)c(=S)[nH]c2c1)N1CCN(Cc2ccccc2)CC1 returned Mtb hypoxia rep 5, Autofluor counter 9115, PrP 5UTR inh -20, BJeLR lethal 11, ugtP null kill 0, RN4220 kill -6.4 and Mtb hypoxia rep growth 11.
COc1ccc(CNc2oc(COc3ccc(Cl)cc3)nc2C#N)cc1 was read as Mtb hypoxia rep 5, Autofluor counter 20982*, PrP 5UTR inh -85, BJeLR lethal -15, ugtP null kill -22, RN4220 kill -1.6 and Mtb hypoxia rep growth -3.
CC(C)c1cc(C(=O)NNC(=S)NCc2ccco2)c(O)c(C(C)C)c1 was read as Mtb hypoxia rep 2, Autofluor counter 2568, PrP 5UTR inh -34, BJeLR lethal 7, ugtP null kill 9, RN4220 kill 11 and Mtb hypoxia rep growth 0.
Screening CCN(CC)CCn1c(NS(=O)(=O)c2ccc(C)cc2)nc2ccccc21 returned Mtb hypoxia rep 12, Autofluor counter inconclusive, PrP 5UTR inh -22, ugtP null kill 12, RN4220 kill 2.0 and Mtb hypoxia rep growth 7.
`N#Cc1c(NCCCO)nc(-c2ccco2)c2c1CCCC2` gave Autofluor counter 2198, PrP 5UTR inh 5, BJeLR lethal 2, ugtP null kill -10 and RN4220 kill 0.7.
For O=C(COC(=O)Cc1ccsc1)NCC12CC3CC(CC(C3)C1)C2 the results were Mtb hypoxia rep 2, Autofluor counter 5541, PrP 5UTR inh -21, BJeLR lethal 5, ugtP null kill -11, RN4220 kill 11 and Mtb hypoxia rep growth 7.
CNC(=S)Nc1cc(OC)ccc1OC was read as Mtb hypoxia rep 18, Autofluor counter 10079, PrP 5UTR inh -24, BJeLR lethal -4, ugtP null kill 8, RN4220 kill 2.7 and Mtb hypoxia rep growth 13.
CCOC(=O)Cc1cc(-c2ccc(OC)cc2)nc2ccc3ccccc3c12 was read as Mtb hypoxia rep 6, Autofluor counter 2271, PrP 5UTR inh -14, BJeLR lethal 3, ugtP null kill 1, RN4220 kill -8.5 and Mtb hypoxia rep growth 3.
Screening C/C(=N\NC(=S)NC(C)C)c1ccc(Cl)c([N+](=O)[O-])c1 returned Autofluor counter 6134, PrP 5UTR inh -7 and BJeLR lethal -16.
Screening COc1ccc(S(=O)(=O)N2CCCC(C(=O)NCc3ccco3)C2)cc1Cl (configuration not stated) returned Mtb hypoxia rep 3, Autofluor counter 6166, PrP 5UTR inh -33, BJeLR lethal -9, ugtP null kill 0, RN4220 kill 1.6 and Mtb hypoxia rep growth -3.
`O=C(C[n+]1cc(-c2ccccc2)n2c1CCC2)c1cccs1` gave Mtb hypoxia rep 7, Autofluor counter 4519, PrP 5UTR inh -44, BJeLR lethal 4, ugtP null kill 8, RN4220 kill -0.5 and Mtb hypoxia rep growth -3.
COC(=O)NN=Cc1c(C)[nH]n(-c2ccccc2)c1=O was read as Mtb hypoxia rep 15, ugtP null kill 10, RN4220 kill 7.3 and Mtb hypoxia rep growth 6.
For COc1ccccc1NC(=O)CCC(=O)N1CC(C)Oc2ccc(C)cc21 (configuration not stated) the results were Mtb hypoxia rep 4, Autofluor counter 5879, PrP 5UTR inh -24, BJeLR lethal 14, ugtP null kill -6, RN4220 kill 2.7 and Mtb hypoxia rep growth 4.
For CC(=O)O/C(=C1\CC2C3CC=C4CC(OC(C)=O)CCC4(C)C3CCC2(C)C1=O)C(F)(F)F (configuration not stated) the results were Mtb hypoxia rep 16, Autofluor counter 4042, PrP 5UTR inh -1, ugtP null kill 100*, RN4220 kill 100* and Mtb hypoxia rep growth 8.
CCc1ccccc1NC(=O)CSc1nnc(CNC(=O)c2ccco2)n1C was read as Mtb hypoxia rep -13, Autofluor counter 3780, PrP 5UTR inh -19, BJeLR lethal -3, ugtP null kill 4, RN4220 kill 3.4 and Mtb hypoxia rep growth 5.
`CC[C@]12C(=O)N(C)CC(C3C(=O)N(Cc4ccccc4)C(=O)C31)N2C(=O)c1ccc(C(C)(C)C)cc1` (some centres not stated) gave Mtb hypoxia rep -6, ugtP null kill -1, RN4220 kill 8.4 and Mtb hypoxia rep growth 0.
COc1cccc(OC)c1OCC(=O)Nc1ccc(S(=O)(=O)N2CCCC2)cc1 was read as Mtb hypoxia rep 6, PrP 5UTR inh -5, ugtP null kill 3, RN4220 kill 3.0 and Mtb hypoxia rep growth 3.
`CC/C(=N\N1CCCCC1)c1c(O)[nH]c(=O)[nH]c1=O` gave Mtb hypoxia rep 18, Autofluor counter 5092, PrP 5UTR inh -24, BJeLR lethal -10, ugtP null kill 6, RN4220 kill 3.1 and Mtb hypoxia rep growth 2.
Screening Cc1cc(C)cc(OCC(=O)NCc2cc(C)nc3ccccc23)c1 returned Mtb hypoxia rep 10, Autofluor counter 2109, PrP 5UTR inh -19, BJeLR lethal 6, ugtP null kill 9, RN4220 kill 7.6 and Mtb hypoxia rep growth 4.
For CCC(=O)N(c1nnc(SCC(=O)NN2C(=O)NC3(CCCCC3)C2=O)s1)C1CC1 the results were Mtb hypoxia rep 8, Autofluor counter 3983, PrP 5UTR inh -25, ugtP null kill 4, RN4220 kill 3.3 and Mtb hypoxia rep growth -5.
O=C1CC(NNc2ccccc2)C(=O)N1c1cccc(Cl)c1 (configuration not stated) was read as Autofluor counter 2228, PrP 5UTR inh 2 and BJeLR lethal -3.
`Cc1ccc(-c2n[nH]c(=S)n2C)cc1Cl` gave Mtb hypoxia rep 17, Autofluor counter 3788, PrP 5UTR inh 6, BJeLR lethal 22, ugtP null kill -61, RN4220 kill 6.9 and Mtb hypoxia rep growth 9.
For CC1Cc2ccccc2N1C(=O)COC(=O)c1cc(Br)ccc1O (configuration not stated) the results were Mtb hypoxia rep 5, Autofluor counter inconclusive, PrP 5UTR inh -18, BJeLR lethal -2, ugtP null kill 40, RN4220 kill 3.5 and Mtb hypoxia rep growth -3.
Screening CNC(=O)C(=O)NCC1OCCN1S(=O)(=O)c1ccc([N+](=O)[O-])cc1 (configuration not stated) returned Mtb hypoxia rep 8, Autofluor counter 1965, PrP 5UTR inh 10, BJeLR lethal -11, ugtP null kill 2, RN4220 kill 7.3 and Mtb hypoxia rep growth 11.
For O=C(Nc1ccccc1F)c1ccc(CSc2ncccn2)cc1 the results were Mtb hypoxia rep -1, Autofluor counter 2059, PrP 5UTR inh -66, BJeLR lethal -1, ugtP null kill -6, RN4220 kill -3.0 and Mtb hypoxia rep growth -3.

Sorted by molar mass (rising): part of the list above
`Cc1ccc(-c2n[nH]c(=S)n2C)cc1Cl` gave Mtb hypoxia rep 17, Autofluor counter 3788, PrP 5UTR inh 6, BJeLR lethal 22, ugtP null kill -61, RN4220 kill 6.9 and Mtb hypoxia rep growth 9.
Screening CNC(=O)C(=O)NCC1OCCN1S(=O)(=O)c1ccc([N+](=O)[O-])cc1 (configuration not stated) returned Mtb hypoxia rep 8, Autofluor counter 1965, PrP 5UTR inh 10, BJeLR lethal -11, ugtP null kill 2, RN4220 kill 7.3 and Mtb hypoxia rep growth 11.
For CC1Cc2ccccc2N1C(=O)COC(=O)c1cc(Br)ccc1O (configuration not stated) the results were Mtb hypoxia rep 5, Autofluor counter inconclusive, PrP 5UTR inh -18, BJeLR lethal -2, ugtP null kill 40, RN4220 kill 3.5 and Mtb hypoxia rep growth -3.
CCc1ccccc1NC(=O)CSc1nnc(CNC(=O)c2ccco2)n1C was read as Mtb hypoxia rep -13, Autofluor counter 3780, PrP 5UTR inh -19, BJeLR lethal -3, ugtP null kill 4, RN4220 kill 3.4 and Mtb hypoxia rep growth 5.
COc1cccc(OC)c1OCC(=O)Nc1ccc(S(=O)(=O)N2CCCC2)cc1 was read as Mtb hypoxia rep 6, PrP 5UTR inh -5, ugtP null kill 3, RN4220 kill 3.0 and Mtb hypoxia rep growth 3.
For CC(=O)O/C(=C1\CC2C3CC=C4CC(OC(C)=O)CCC4(C)C3CCC2(C)C1=O)C(F)(F)F (configuration not stated) the results were Mtb hypoxia rep 16, Autofluor counter 4042, PrP 5UTR inh -1, ugtP null kill 100*, RN4220 kill 100* and Mtb hypoxia rep growth 8.

(list continues)
CN(C)S(=O)(=O)c1ccc(C(=O)Nc2nnc(SCc3cccc(F)c3)s2)cc1 was read as Mtb hypoxia rep 0, Autofluor counter 7647, PrP 5UTR inh -27, BJeLR lethal 9, ugtP null kill -10, RN4220 kill -1.0 and Mtb hypoxia rep growth -2.
COc1ccc(CC(=O)Nc2c3c(nn2-c2cccc(Cl)c2)CS(=O)(=O)C3)cc1 was read as Mtb hypoxia rep 10, Autofluor counter 10335, PrP 5UTR inh 1, BJeLR lethal 4, ugtP null kill -3, RN4220 kill 2.5 and Mtb hypoxia rep growth 13.
For CC(=O)c1c(C)[nH]c(C(=O)N2CCC3(CC2)OCCO3)c1C the results were Autofluor counter 3326, PrP 5UTR inh -5, BJeLR lethal 5, ugtP null kill -6 and RN4220 kill -2.7.
Screening COC(=O)[C@H](C)NC(=O)NCc1ccc(F)cc1 returned Mtb hypoxia rep -1, Autofluor counter 8486, PrP 5UTR inh -2, BJeLR lethal -1, ugtP null kill 6, RN4220 kill 4.0 and Mtb hypoxia rep growth 5.
For Nc1cccc(-c2cc3ccccc3oc2=O)c1 the results were Mtb hypoxia rep 0, Autofluor counter 4249, PrP 5UTR inh 41, BJeLR lethal 2, ugtP null kill -3, RN4220 kill 3.9 and Mtb hypoxia rep growth 1.

Assay outcomes: PubChem BioAssay, several laboratories

Rows were taken by chance. About 4% of those tested had a hit in this group.
